ClpP mod: qHTS Assay for Activators of ClpP; ATP-dependent Clp protease proteolytic subunit (Bacillus subtilis (strain 168)), P80244; purified B. subtilis ClpP, FRET peptide cleavage, 20 min; Potency, µM (highest dose often 57.5 µM), inactives show top-dose activity change, negative = active; hit rate 1.9% among 340,000; AID 651965, 2013; active = well fitted falling curve with a large enough effect; inconclusive = small, poorly fitted or top-dose-only effect; inactive = no such curve, though single readings can be large or run the other way; further: the source files actives as falling curves though it sought activators and does not explain the sign; nearly all actives have a fitted effect of over 65% in size; many hits overshoot -100%
Target sequence (P80244 whole entry, looked up): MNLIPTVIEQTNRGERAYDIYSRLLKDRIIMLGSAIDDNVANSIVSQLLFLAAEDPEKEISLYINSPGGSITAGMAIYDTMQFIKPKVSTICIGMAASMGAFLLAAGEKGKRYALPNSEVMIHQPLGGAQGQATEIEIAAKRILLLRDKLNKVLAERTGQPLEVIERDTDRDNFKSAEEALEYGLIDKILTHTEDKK
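ClpP 10 microg/mL final, pH 8 Tris/KCl buffer with BSA, glycerol, Tween-20; compound pinned in; FRET-FV substrate; RT 20 min; Ex320/Em430; ΔFRET vs ADEP 5.8 microM, DMSO, no enzyme.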
PINK1 expr mod: changes PINK1 expression; Potency, µM (highest dose often 76.6 µM), inactives show at the top dose activation (PINK1 increase), usual class: activators; hit rate 0.2% among 410,000; PINK1 immunofluorescence, high-content cytometry, 24 h; AID 624263; active = well fitted activation curve with a large enough effect; inconclusive = small, poorly fitted or top-dose-only effect; inactive = flat fitted curve, though single readings scatter; cell line not stated here;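 further: % of control where 0% means no effect; nearly all actives have a fitted effect of over 65% in size; a mitochondrial uncoupler was the plate control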
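Readout is PINK1 immunofluorescence, quantified alongside mitochondrial, cell and nuclear markers by laser-scanning microplate cytometry. Cells from a stable line were exposed to compound titrations (5 concentrations) for 24 hours, with CCCP controls.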
The depositor's hits bear a star; ? = inconclusive; & = joins results of further samples. Potency means the concentration at half of the fitted maximal effect. An excerpt. The share of hits here may be higher or lower than overall.

The line under a structure holds: ClpP mod | PINK1 expr mod
- Cc1cccc(-n2c3nc(=O)n(C)c(=O)c-3cc3ccc(Cl)cc32)c1C
  -12.1% | 3.3%
- Cc1cc(C)c2c(n1)nn1c(C)c(CCC(=O)NCc3ccccc3Cl)c(C)nc21
  -28.4% | -0.8%
- COc1ccc(CCNC(=O)c2cccc(-n3cnc4cccnc43)c2C)cc1OC
  -4.2% | -0.7%
- O=C(NC1CCCCC1)c1ccc(CSc2nc3ccncc3n2Cc2ccc(F)cc2)cc1
  -9.4% | -0.8%
- CCCCOc1ccc(C(=O)NCc2nnnn2-c2ccc(C)c(C)c2)cc1
  -1.0% | -0.8%
- CCc1ccccc1NC(=O)C(NS(=O)(=O)c1ccc2c(c1)CCC(=O)N2)c1ccccc1 (stereo not given)
  1.5% | 1.3%
- N#CCCN(Cc1ccccc1)C(c1ccnc2ccccc12)c1nnnn1-c1ccc2c(c1)OCCO2 (stereo not given)
  0.3% | 0.9%
- COc1ccc2c(c1)c1c(c(=O)n(-c3ccc(OC)c(OC)c3)c(=O)n1Cc1ccc(C)cc1)n2C
  ? | 1.4%
- COCc1cc(C)nc2sc3c(c12)NC(c1ccc(O)c(OC)c1)N(c1ccccc1)C3=O (stereo not given)
  -9.3% | 0.5%
- CCOc1ccccc1NC(=O)N1CCN(Cc2nc3ccc(C)cc3o2)CC1
  -3.7% | 0.3%
- Cc1ccc(C)c(NC(=O)CSc2nc3c([nH]c4ccccc43)c(=O)n2-c2ccc(F)cc2)c1
  -1.4% | -3.2%
- CCOc1ccc(CNC(=O)CN2C(=O)C3CCCCN3c3ccc(C(=O)N4CCCC4)cc32)cc1 (stereo not given)
  0.2% | 0.5%
- CC(C)NC(=O)Cn1ccc2cc(S(=O)(=O)N3CCCCCC3)ccc21
  -7.4% | 2.5%
- Cc1ccc(-n2c(-c3ccccc3)nsc2=NC#N)cc1
  -1.1% | 0.6%
- Cc1ccc2nc(-c3ccc(C)c(NC(=O)COc4ccc(Br)cc4)c3)oc2c1
  -14.4% | -0.1%
- Cc1cccc(OCc2nnc(SCC(=O)Nc3ccc(C)cc3C)o2)c1
  -20.9% | -0.3%
- CCCCOC(=O)c1ccc(NC(=O)Cn2nnc3sc4c(c3c2=O)CCCC4)cc1
  -3.6% | 0.6%
- Cc1nc2c(-c3ccc(F)cc3)c(C)nn2c(C)c1CCC(=O)NCc1ccc(F)cc1
  -7.6% | 1.6%
- CCc1ccc(NC(=O)C(C)n2nnc3sc(-c4ccccc4)cc3c2=O)cc1 (stereo not given)
  -5.1% | 4.0%
- Cn1nnnc1SCCCNCc1cccc(OCc2ccc(F)cc2)c1
  4.1% | 2.5%
- COCCNC(=O)C1CCN(S(=O)(=O)c2ccc3c(c2)CCCN3C(C)=O)CC1
  0.0% | -0.8%
- CCS(=O)(=O)c1ncc(N(Cc2ccccc2)Cc2ccco2)c(C(=O)Nc2ccccc2C)n1
  -3.6% | 3.4%
- O=C(c1ccc2c(c1)N(Cc1c(F)cccc1Cl)C(=O)c1ccccc1S2)N1CCOCC1
  -3.6% | 0.2%
- O=C(Cn1ncn2cccc2c1=O)NCc1cccc(Br)c1
  -0.1% | 1.0%
- CCC(C)n1c(=N)c(S(=O)(=O)c2ccccc2)cc2c(=O)n3ccccc3nc21 (stereo not given)
  -4.3% | 1.1%
- CN(C)c1ccc(NC(=O)CN2C(=O)c3ccccc3Sc3ccc(C(=O)N4CCCC4)cc32)cc1
  0.5% | 0.7%
- COc1ccc(NC(=O)C2CCCN(S(=O)(=O)c3ccc(Cl)cc3)C2)cc1 (stereo not given)
  0.9% | -0.9%
- Cc1ccc(-c2nc3scc(CCNC(=O)Cc4ccc(Cl)cc4)n3n2)cc1
  3.0% | -0.3%
- CC1=C(C(=O)Nc2ccc(Cl)cc2)C(CC(C)C)n2nc(SCc3ccccc3C)nc2N1 (stereo not given)
  -13.7% | 0.7%
- CC(CC(=O)Nc1ccc(F)cc1)S(=O)(=O)c1cc2c3c(c1)CCN3C(=O)CC2 (stereo not given)
  0.7% | -0.2%
- CC(=O)N1c2ccc(S(=O)(=O)N3CCCCCC3)cc2CC1C(=O)NCc1ccccc1C (stereo not given)
  -1.4% | 2.1%
- Cc1ccc(/C=C(\C#N)C(=O)Nc2ccc(Br)cc2)o1
  1.2% | 10.2%
- CCOc1ccc(NC(=O)c2cnn(-c3ccccc3)c2-n2cccc2)cc1
  9.9% | 0.0%
- COc1ccc(Cl)cc1C(=O)NCc1nnnn1-c1ccccc1
  1.0% | 0.8%
- Fc1ccc(Cc2cn3cc(-c4ccc(F)cc4)nc3s2)cc1
  0.6% | 7.0%
- CC(=O)N1CCc2cc(Br)cc(S(=O)(=O)NCCc3cccc(C)c3)c21
  2.5% | 0.7%
- COc1ccccc1OC(C)C(=O)N1CCN(CCc2ccccn2)CC1 (stereo not given)
  -0.5% | 0.0%
- CC(=O)c1ccc(NC(=O)c2ccc(-n3cnnc3)cc2)cc1
  -2.4% | 4.3%
- Cc1ccc(Cl)cc1NC(=O)Cn1c(=O)n(Cc2ccc(C(=O)NCc3ccc4c(c3)OCO4)cc2)c(=O)c2ccccc21
  11.2µM* | 0.3%
- CC(=O)c1cccc(NC(=O)c2cc(-c3ccc(Cl)s3)nc3ccccc23)c1
  223.2% | -0.3%
- CCCCNS(=O)(=O)c1ccc2nc(NC(=O)c3cccnc3)sc2c1
  -4.2% | 10.7%
- Cc1cccc(N2CCN(c3nc4ccccc4c(=O)n3-c3ccc(Cl)cc3)CC2)c1C
  17.8µM* | 3.4%
- O=C(NCc1cccs1)c1ccc2c(c1)N(Cc1cccc(F)c1)C(=O)c1ccccc1S2
  -4.3% | 1.0%
- COc1ccc(Nc2ncc3c(n2)CCN(Cc2cccc(F)c2F)C3)c(OC)c1
  -1.0% | 1.7%
- Cn1cc(S(=O)(=O)N2CCOCC2)cc1C(=O)Nc1cccc(C#N)c1
  0.2% | -0.3%
- O=C(C1CCN(c2ncnc3c2nc2n3CCCCC2)CC1)N1CCN(c2ccc(Cl)cc2)CC1
  -3.8% | 25.0%
- CCCCSc1ncnc2c1sc1nc(N3CCOCC3)c3c(c12)CCCC3
  -7.1% | -1.4%
- Cc1ccc(-c2cc(C(=O)Oc3ccccc3Cl)no2)cc1C
  -1.3% | 0.9%
- CCOc1ccc(CNC(=O)c2ccc(NC(=O)N3CCCCc4ccccc43)cc2)cc1OC
  -1.6% | -0.7%
- CCOc1ccc(CN2C(=O)c3ccccc3Sc3ccc(C(=O)NCCc4ccccc4)cc32)cc1
  -7.1% | 2.9%

Full records from above. Order of values: ClpP mod	PINK1 expr mod
Entry for O=C(C1CCN(c2ncnc3c2nc2n3CCCCC2)CC1)N1CCN(c2ccc(Cl)cc2)CC1 = -3.8%	25.0%
Entry for COc1ccc(Nc2ncc3c(n2)CCN(Cc2cccc(F)c2F)C3)c(OC)c1 = -1.0%	1.7%
Entry for CCOc1ccc(CN2C(=O)c3ccccc3Sc3ccc(C(=O)NCCc4ccccc4)cc32)cc1 = -7.1%	2.9%
Entry for Cc1cccc(N2CCN(c3nc4ccccc4c(=O)n3-c3ccc(Cl)cc3)CC2)c1C = 17.8µM*	3.4%

A different layout for part of the listing above:
CCCCNS(=O)(=O)c1ccc2nc(NC(=O)c3cccnc3)sc2c1
  ClpP mod: -4.2%	PINK1 expr mod: 10.7%
CCOc1ccc(CN2C(=O)c3ccccc3Sc3ccc(C(=O)NCCc4ccccc4)cc32)cc1
  ClpP mod: -7.1%	PINK1 expr mod: 2.9%
Cn1cc(S(=O)(=O)N2CCOCC2)cc1C(=O)Nc1cccc(C#N)c1
  ClpP mod: 0.2%	PINK1 expr mod: -0.3%

Continuation:
molecule,ClpP mod,PINK1 expr mod
Cc1nn(C)c2c1c(-c1ccccc1)cc(=O)n2CC(=O)NC(C)c1ccccc1 (stereo not given),-16.8%,2.5%
CCOC(=O)c1ccc(NC(=O)CC2Nc3cccc4cccc(c34)NC2=O)cc1 (stereo not given),-1.3%,-0.4%
O=C(CNC(=O)C1CCCCC1)OCc1ccccc1,-0.3%,0.4%
CCOc1cc(C(=O)N2CC(=O)Nc3ccc(C)cc3C2c2ccccc2)cc(OCC)c1OCC (stereo not given),-0.5%,0.0%
Fc1cccc(Cl)c1CNc1n[nH]c(-c2ccco2)n1,-28.3%,-0.5%
Cc1c(C(=O)Nc2cccc(C(F)(F)F)c2)oc2ccc3c(c12)C(=O)CC(C)(C)O3,-15.7%,10.8%
Cn1ccc2c(OCC(=O)Nc3cc(C(F)(F)F)ccc3Cl)cccc2c1=O,-12.2%,2.0%
COc1cccc(C(=O)Nc2ccc(S(=O)(=O)N(Cc3ccccc3)c3ccccc3)cc2)c1,?,0.4%
CCc1ccc(NC(=O)c2cc(S(=O)(=O)N3CCCCCC3)ccc2F)cc1,12.7%,3.7%
CCOC(=O)C1CCCN(C(=O)c2ccc(NC(=O)c3nsc4ccccc34)cc2)C1 (stereo not given),0.3%,-0.9%
O=C(NCc1ccc(Cl)cc1)c1ccc(CNS(=O)(=O)c2ccc(F)cc2)cc1,2.1%,1.5%
O=C(NCc1ccccc1)C1c2ccccc2OCC(=O)N1CCCN1CCOCC1 (stereo not given),-0.5%,5.3%
COc1ccc(CNCCC(c2ccc(C)cc2)c2ccco2)cc1 (stereo not given),-3.5%,23.8%
CSc1ccc(CCNC(=O)C2=C(C)C(=O)OC23CCCCC3)cc1,2.7%,2.4%
COc1cccc(-c2cn3c(n2)sc2cc(C(=O)NCCCc4ccccc4)ccc23)c1,4.6%,0.2%
CN(c1ccc(F)cc1)S(=O)(=O)N1CCCC(C(=O)NCCc2ccccc2)C1 (stereo not given),-0.2%,-0.4%
COc1ccc(C(=O)Nc2nc3c(s2)Cc2c(Br)ccc(OC)c2-3)cc1OC,4.0%,6.7%
CC(=O)Nc1cccc(NC(=O)C(=O)NCCc2sc(-c3ccccc3)nc2C)c1,-7.6%,3.3%
O=C(NCc1ccc(F)cc1F)[C@@H]1CCCN1C(=O)[C@@H]1CCCN1C(=O)c1cccc2ccccc12,-1.8%,1.5%
Cn1c(=O)cc(SCC(=O)N2CCN(c3ccccc3F)CC2)c2ccccc21,-12.4%,1.1%
O=S(=O)(NCCc1csc2nc(-c3ccc(Cl)cc3)nn12)c1ccc2c(c1)OCCO2,0.1%,1.2%
COc1ccc(OC)c(CNC(=O)CN2C(=O)CCn3nc(-c4cn(C)c5ccccc45)cc32)c1,-8.5%,1.6%
CCCCNC(=O)CC1Nc2cc(C)c(C)cc2NC1=O (stereo not given),4.3%,-1.5%
COc1ccc(-n2c(SCC(=O)Nc3cccc(C)c3C)nc3c([nH]c4ccccc43)c2=O)cc1,-6.1%,-0.6%
COc1ccc(-n2ccnc(NCCc3ccc(S(N)(=O)=O)cc3)c2=O)cc1,-10.1%,0.0%
Cc1cccc(NC(=O)c2oc3ccccc3c2NC(=O)c2cc(=O)c3cc(Cl)ccc3o2)c1,-2.1%,3.6%
COc1ccc(-c2noc(CSc3nnc(-c4ccncc4)n3-c3ccc(C)cc3)n2)cc1,-0.5%,-0.4%
Nc1ncnc2oc(-c3ccoc3)c(-c3ccco3)c12,4.4%,-0.3%
CCc1ccc(NC(=O)CC2C(=O)N(c3cccc(C)c3)C(=O)N2CCC(C)C)cc1 (stereo not given),-2.1%,2.1%
NN=C1c2cc(S(=O)(=O)NCCO)ccc2-c2ccc(S(=O)(=O)NCCO)cc21,-1.6%,-0.8%
CC(C)c1ccc(NC(=O)c2cc(S(=O)(=O)NC3CCCCC3)ccc2F)cc1,-0.6%,23.1%
Cc1cc2c(cc1S(=O)(=O)Nc1cc(C(F)(F)F)cc(C(F)(F)F)c1)OCC(=O)N2,1.6%,0.4%
CCCCOC(=O)c1ccc(Nc2nc3ccc(C(=O)c4ccccc4)cc3n3cnnc23)cc1,-0.5%,1.8%
CCCN1C(=O)c2[nH]nc(-c3ccc(F)cc3)c2C1c1ccccn1 (stereo not given),-0.9%,2.9%
COc1cccc(CNc2ncnc3nc[nH]c23)c1,-1.3%&-1.5%,5.2%&1.0%
CCOc1ccc(Sc2cc(C(=O)NC(C)c3ccccc3)c3ccccc3n2)cc1 (stereo not given),20.3%,4.9%
CC(C(=O)NCc1ccccc1F)n1ccc2cc(S(=O)(=O)N3CCCC3)ccc21 (stereo not given),0.6%,0.8%
CC(NC(=O)CCCn1c(=O)c2cccn2c2cccnc21)c1ccccc1 (stereo not given),4.2%,0.3%
COc1ccc(NC(=O)CN2C(=O)C(C)(C)c3ccccc32)cc1Cl,1.6%,3.7%
Cc1cc(C)cc(NC(=O)CN2C(=O)COc3ccc(S(=O)(=O)Nc4ccccc4)cc32)c1,1.6%,0.2%
O=S(=O)(c1ccccc1)n1nc(-c2ccco2)nc1NCc1ccccc1,-0.1%,4.2%
Cc1ccc(C(=O)n2nc(C)c(S(=O)(=O)N3CCOCC3)c2C)cc1,1.6%,-0.4%
CCc1ccc(NC(=O)CC2C(=O)N(c3ccc(C)cc3)C(=O)N2C2CCCC2)cc1 (stereo not given),2.5%,1.8%
O=C(NCc1ccccc1)c1cc2sccc2n1Cc1ccc(F)cc1,-1.2%,5.6%

Screens deposited in PubChem by National Center for Advancing Translational Sciences (NCATS).
